Bioassay records (PubChem BioAssay)
ClpP mod: qHTS Assay for Activators of ClpP | purified B. subtilis ClpP, FRET peptide cleavage, 20 min | Potency, µM (titrated, usually from 57.5 µM), for the others: at the highest dose activity change, negative = active | hit rate 1.9% among 340,000; active = well fitted falling curve with a large enough effect; inconclusive = small, poorly fitted or top-dose-only effect; inactive = no such curve, though single readings can be large or run the other way; further: potency means the concentration at half of the fitted maximal effect; the source files actives as falling curves though it sought activators and does not explain the sign; nearly all actives have a fitted effect of over 65% in size; many hits overshoot -100%
Target sequence (P80244 whole entry, looked up): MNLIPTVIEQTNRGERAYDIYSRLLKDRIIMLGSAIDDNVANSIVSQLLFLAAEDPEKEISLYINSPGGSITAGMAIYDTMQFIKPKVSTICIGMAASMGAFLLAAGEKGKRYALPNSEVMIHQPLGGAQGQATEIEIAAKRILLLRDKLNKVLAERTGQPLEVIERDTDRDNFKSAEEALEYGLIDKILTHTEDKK
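Buffer: 100 mM Tris/HCl pH8, 100 mM KCl, 0.05% low protease BSA, 2.5% glycerol, 0.01% Tween-20. ClpP 10 microg/mL final; 20 min RT; delta FRET normalized to ADEP and DMSO controls.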
Sfp PPTase inh: blocks B. subtilis Sfp PPTase activity | Q9F4F7 | Biochemical Sfp PPTase activity, qHTS | Potency, µM, inactives show max response, negative = inhibition, hits mostly inhibitors | hit rate 3.5% among 310,000; active means well fitted inhibition curve with a large enough effect; inconclusive means small, poorly fitted or top-dose-only effect, or another doubt; inactive means no such curve, though single readings can be large or run the other way;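 further: the enzyme is Sfp with the accession as filed and its product quenches rhodamine fluorescence; potency means the concentration at half of the fitted maximal effect; 0% = enzyme reaction without inhibitor and -100% = no enzyme wells; top concentration of the series not given in the record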
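Step 1, compound plus 15 nM Sfp-PPTase, 15 min, room temperature. Step 2, add rhodamine-CoA (5 uM) and BHQ-2-YbbR (12.5 uM). Step 3, read 525/598 nm fluorescence at 0 and 30 min.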
TRPV1 potentiator: human TRPV1 potentiation | potentiation, % at 8.33 µM | TRPV1-expressing cells, Fluo-8 calcium influx, capsaicin EC20 potentiation; host cell line not named in the record; control for the full effect not named in the record | hit rate 0.02% among 320,000 | Q8NER1; active means potentiation above 80%; inconclusive means 30% to 80%; inactive means below 30%; further: 0% is about no effect
Target sequence (Q8NER1 whole entry, looked up): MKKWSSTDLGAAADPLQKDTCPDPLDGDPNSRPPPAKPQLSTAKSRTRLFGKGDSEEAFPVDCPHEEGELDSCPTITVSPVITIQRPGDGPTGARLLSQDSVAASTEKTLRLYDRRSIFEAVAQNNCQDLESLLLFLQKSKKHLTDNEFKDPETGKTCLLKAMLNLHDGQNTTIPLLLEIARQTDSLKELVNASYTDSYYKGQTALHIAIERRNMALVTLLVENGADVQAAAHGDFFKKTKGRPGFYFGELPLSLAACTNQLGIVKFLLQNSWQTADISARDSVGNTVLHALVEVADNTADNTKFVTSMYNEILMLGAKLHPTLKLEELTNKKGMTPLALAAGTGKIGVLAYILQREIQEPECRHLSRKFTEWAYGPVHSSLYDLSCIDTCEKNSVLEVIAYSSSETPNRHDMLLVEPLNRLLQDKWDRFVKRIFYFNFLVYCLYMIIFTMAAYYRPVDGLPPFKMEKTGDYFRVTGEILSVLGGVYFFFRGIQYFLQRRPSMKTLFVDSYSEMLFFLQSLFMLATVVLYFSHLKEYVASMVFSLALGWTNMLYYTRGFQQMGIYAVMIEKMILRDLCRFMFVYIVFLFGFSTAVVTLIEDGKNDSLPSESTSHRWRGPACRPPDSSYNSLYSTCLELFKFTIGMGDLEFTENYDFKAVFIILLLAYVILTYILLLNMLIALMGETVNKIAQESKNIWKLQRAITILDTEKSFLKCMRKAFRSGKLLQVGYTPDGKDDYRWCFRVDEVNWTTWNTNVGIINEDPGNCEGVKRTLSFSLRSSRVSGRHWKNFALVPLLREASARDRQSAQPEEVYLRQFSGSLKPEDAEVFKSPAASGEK
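Fluo-8 calcium influx in TRPV1-expressing cells, kinetic read (ex 480/em 520 nm). Compound added and read 3 min for agonist activity, followed by capsaicin at EC20 final and 2 min further read for enhancement.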
gsp antag: antagonizes gsp, the McCune-Albright syndrome mutation; gsp-mutant cells, cAMP HTRF, 30 min; control for the full effect not named in the record; hit rate 0.4% among 340,000; Potency, µM (titrated, usually from 76.9 µM), inactives show top-dose activity change, negative = inhibition, actives largely listed as inhibitors; AID 624288; active = falling curve of any shape with a large fitted effect; inconclusive = falling curve, mostly with a smaller effect; inactive = flat or rising curve; cell line not stated here;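 further: intracellular cAMP measured with PDE inhibitor Ro 20-1724 present during compound exposure; potency means the concentration at half of the fitted maximal effect; on the % scale 0 is the no-effect control and ±100 the full control effect; nearly all actives have a fitted effect of over 65% in size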
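G418-selected cells were plated in DMEM/10% FBS for 16-24 h at 37C, then treated with compounds plus the PDE inhibitor […] (300 uM solution added) for 30 min at 37C. Intracellular cAMP was measured by HTRF after 30 min lysis at room temperature.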
Menin-MLL FL inh: menin-MLL binding inhibition, fluorescein peptide. FP activity change, % at 61.4 µM. AID 1766. Fluorescence polarization, fluorescein-MLL peptide displacement from menin. 290,000 tested, under 10 active; inconclusive = falling polarisation curve, or a change in total fluorescence; inactive = total fluorescence flat and polarisation flat or rising; no compound was filed as active; the % refers to the polarisation; negative = inhibition;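 further: % of control where 0% means no effect; inhibitors lower the polarisation; unlabelled MLL peptide was the positive control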
gsp agonist: gsp mutant agonism; hit rate 0.13% among 340,000; AID 624287; Potency, µM (series often up to 76.9 µM), without a hit: at the top dose activation (cAMP increase), hits mostly activators; gsp mutant cells, cAMP HTRF, 30 min; control for the full effect not named in the record; active = well fitted activation curve with a large enough effect; inconclusive = small, poorly fitted or top-dose-only effect, or another doubt; inactive = no such curve, though single readings can be large or run the other way; cell line not stated here;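 further: phosphodiesterase inhibitor Ro 20-1724 added with compounds to block cAMP breakdown; potency means the concentration at half of the fitted maximal effect; nearly all actives have a fitted effect of over 60% in size; about a fifth of the inactives were tested at one dose only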
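Cells stably selected in G418 were plated at 2000/well, grown 16-24 hr, then given compounds in DMSO with the PDE inhibitor […] (300 uM solution added) for 30 min at 37C; cAMP was read by HTRF.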
TRPML1 blocker: human mucolipin-1 channel inhibition; AID 624415; activity change, negative = inhibition, % (test concentration not listed); hit rate 0.02% among 390,000; TRPML1-inducible cells, Ca2+ dye fluorescence, FDSS; stronger effect = lower value; inhibition of EC80 agonist-evoked calcium signal; in the data active means activity change below about -50%; inconclusive means about -30% to -50%; inactive means above about -30%;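 further: stimulus is agonist 54-4 at its EC80 concentration; on the % scale 0 is the no-effect control and ±100 the full control effect; compound concentration not given in the record; the text of the record puts the active cut at -80%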
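Tet-induced TRPML1-DL cells loaded with Ca8 no-wash calcium dye were read kinetically on FDSS. Compound addition was followed by EC80 agonist 54-4 (4 uM final); inhibition was read over 110 s.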
* hit, by the source's call; ? = inconclusive; · = not tested or not shown; & = joins results of further samples; [ ] = another dose, or the depositor's remark.

SMILES,gsp antag,TRPV1 potentiator,ClpP mod,gsp agonist,TRPML1 blocker,Sfp PPTase inh,Menin-MLL FL inh
Cc1ccc(N2C(=O)CC(Cn3nc(C)cc3C)C2=O)cc1 (configuration not stated),5.4%,-1.6,0.3%,-4.0%[15.4 µM],-2.0,11.8%,-4.4
CCn1c(COc2ccccc2)nnc1SCC(=O)NC1CC1,0.1%,12.6,-2.6%,2.5%,-6.1,16.6%,·
CC(=O)Nc1cc(NC(C)=O)cc(C(=O)OCC(=O)N(c2ccccc2)C2CCS(=O)(=O)C2)c1 (configuration not stated),15.1%,-6.6,-5.0%,5.1%,5.6,·,·
NC(=O)CSc1nc(-c2ccccc2Cl)ns1,12.8%,-17.8,0.4%,29.0%,14.5,16.5%,4.6
COc1ccc(NC(=O)c2sc(NC(=O)C3CC3)nc2C)cc1,3.6%,-3.0,0.0%,-17.9%,60.2,3.9%,-2.0
c1ccc(-c2[nH]ncc2-c2nc3ccccc3[nH]2)cc1,-2.9%,-5.2,25.1µM*,-0.9%,16.8,15.0%,-1.5
Cc1nc2ccccc2c(=O)n1N(c1ccccc1)c1ccccc1,-5.5%,-4.4,0.0%,-39.2%[inhibitor],-15.8,11.6%,2.1
O=C(O)c1ccc(-c2ccccc2C(F)(F)F)o1,1.7%,-0.2,?,-15.1%,2.9,13.9%,3.5
O=C(NCCCc1ccncc1)C1CCC(=O)N(Cc2cccc(C(F)(F)F)c2)C1 (configuration not stated),8.5%,5.1,0.6%,-23.0%,13.8,13.3%,·
CSc1ccccc1NC(=O)c1noc2c1CCC2,-17.1%,10.2,-0.2%,7.5%,-1.3,20µM*,11.6
Cc1nc2ccccc2c(=O)n1NC(=O)c1c(O)c2ccccc2n(C)c1=O,·,2.6,·,·,·,19.9%,5.0
O=S(=O)(NCc1nnc2c(C(F)(F)F)cc(Cl)cn12)c1ccccc1,-6.1%,-7.0,-7.9%,-23.1%,19.9,3.9%,·
COc1cccc(CNC(=O)c2ccc(N3CCOCC3)c([N+](=O)[O-])c2)c1,2.9%,-9.6,·,3.7%,12.8,17.7%,-0.8
Cc1ccc(C(=O)Nc2nc(=O)[nH]s2)cc1,-10.4%&-9.1%,-2.0&-13.6,·,16.8%&21.6%,-4.9&-0.6,18.9%&0.9%,-7.3&3.2
Cc1ccc2c(CC(=O)NNC(=O)c3ccccc3O)coc2c1,-5.9%,12.1,·,-25.9%[15.4 µM],-8.1,·,·
NC(=O)CCS(=O)(=O)c1ccccc1,9.7%,12.0,0.3%,-22.9%,11.7,11.8%,-0.8
O=C(CN1C(=O)CC(c2ccccc2)S(=O)(=O)c2ccccc21)NC1CCCC1 (configuration not stated),·,-29.9,·,10.4%[15.4 µM],6.4,25.3%,-3.4
CC(=O)C1=C(O)C(=O)N(Cc2ccco2)C1c1ccc2c(c1)OCO2 (configuration not stated),-5.8%,2.2,-3.1%,-10.6%,-7.6,-11.1%,-2.8
O=C(Cn1cc([N+](=O)[O-])cn1)NCCc1nc2ccccc2[nH]1,17.8%,-11.2,0.7%,?,6.6,-0.8%,1.1
CCOC(=O)C1CCN(Cc2cnc(Oc3ccc(C(C)(C)C)cc3)s2)CC1,-10.1%,-4.9,0.0%,-41.4%[inhibitor],-9.1,12.8%,5.0
N#Cc1c(NC(=O)CSc2nc3ccccc3s2)sc2c1CCCC2,-6.9%,5.9,-0.9%,-5.2%,-5.5,5.2%,·
CCCCN1C(=O)C(CC(=O)NC(c2ccccc2)c2ccccc2)CC(C(=O)N(C(C)C)C(C)C)=C1C (configuration not stated),·,·,-0.4%,6.6%,-2.6,·,·
Oc1ccccc1C1N=C(c2ccccc2)NC(c2ccccc2)=N1,3.6%,-11.9,-0.3%,-29.9%,-13.9,-3.3%,3.0
CCN(CC)C(=O)c1nc[nH]c1C(=O)N1CCN(C(=O)OC(C)(C)C)CC1,14.0%,-7.5,-2.4%,·,7.0,·,·
Cc1ccccc1C(=O)NC1CCS(=O)(=O)C1 (configuration not stated),3.7%,-6.2,0.0%,-32.3%[inhibitor],-7.2,11.6%,-1.4
Cc1cccc(Nc2ccc(S(=O)(=O)N3CCOCC3)cc2[N+](=O)[O-])c1,-15.7%,4.2,2.3%,-11.3%,5.5,·,·
CCCCNC(=O)Nc1c(C)cc(SC#N)cc1C,10.9%,0.7,0.8%,?,13.5,11.6%,3.0
Nc1nn(-c2ccccc2)c(N)c1N=Nc1ccc2c(c1)OCO2,-6.4%,-4.1,3.2%,1.7%[15.4 µM],1.9,14.5%,-0.3
O=S(=O)(CCNC1CC1)NC1CCCCC1,16.1%,·,-3.7%,·,-14.5,·,·
C[C@@H]1NC(=O)/C(=C\c2ccccc2Br)NC1=O,6.9%,0.1,0.8%,-7.0%[15.4 µM],-0.3,3.5%,0.3
O=C(Nc1ccccc1C(=O)O)c1cccc(NC(=O)c2ccc(Br)o2)c1,-17.1%,11.7,-0.5%,0.2%,13.8,7.0%,-1.0
Cc1ccc(-c2cc(C(=O)N3CCCc4ccccc43)no2)cc1,-24.9%,0.5,0.7%,-9.8%,-0.8,4.9%,0.1
CC(=O)N1N=C(c2ccc3ccccc3c2)OC12CCCC2,-17.0%,-5.6,·,-1.9%[15.4 µM],22.3,-26.6%,1.6
CCn1c(SCC(=O)NC2CC2)nnc1-c1ccccc1,·,·,0.1%,-1.8%,-3.8,·,·
Cc1cc(NS(=O)(=O)c2ccc(NC(=O)COc3ccc(Cl)cc3Cl)cc2)no1,-12.1%,7.8,-3.5%,14.3%[15.4 µM],-4.3,11.7%,·
CC/C(=N\NC(=S)Nc1cccc(C)c1)c1ccccc1,-3.2%,2.3,·,5.8%,-1.4,-2.6%,-0.6
O=C(Cn1cnc(S(=O)(=O)N2CCCC2)c1)Nc1cccc(Br)c1,2.5%,4.1,-3.2%&-0.1%,-11.7%,-18.9&-5.6,0.2%,·
CC(C)Nc1nc(NC(C)C)nc(N(C)n2cnnc2)n1,8.6%,-8.1,0.9%,-33.5%[inhibitor],-6.4,4.3%,4.7
CC(Sc1nnc(CN2CCCC2)n1Cc1ccccc1)C(=O)Nc1ccccc1 (configuration not stated),2.5%,20.0,-0.3%,-1.9%,15.5,·,·
CC(=O)Nc1ccc(NC(=O)c2cc(-n3cnnc3)ccc2Cl)cc1,4.5%,-8.0,0.2%,14.3%,-21.0,23.5%,-5.5
C=CCn1cc(C(=O)NCC2CCCO2)c(=O)c2cc(S(=O)(=O)N3CCCCCC3)ccc21 (configuration not stated),-24.8%,-19.2,-0.7%,25.8%,5.2,3.3%,-1.3
COC(CN(C)C(=O)C1CCCN(S(=O)(=O)c2ccc3c(c2)oc(=O)n3C)C1)OC (configuration not stated),8.7%,2.5,-2.1%,3.5%,40.0,2.8%,-0.1
CC(=O)c1ccc(NC(=O)c2ccn[nH]2)cc1,5.7%,-5.3,-1.0%,0.9%,-9.1,11.0%,1.3
COc1ccc(C2=NC(C(F)(F)F)(C(F)(F)F)c3c(n(C)c(=O)n(C)c3=O)N2)cc1,-0.8%,-5.8,-16.9%,?,-9.1,1.8%,1.3
COc1ccc(C(=O)Nc2ccc(O)c3ccccc23)cc1OC,?,·,1.1%,-1.1%[15.4 µM],-6.0,·,·
Nc1nnc(CCCCc2cccs2)o1,4.5%,-17.8,-1.0%,2.6%,0.3,4.2%,-0.1
O=C(CCNc1n[nH]c(=O)[nH]c1=O)N/N=C/c1ccc(Cl)cc1,0.6%,-0.7,·,13.4%,-7.2,13.6%,-2.4
O=C(O)C1CCCCC1C(=O)Nc1ccccc1Cl (configuration not stated),-12.0%,?,2.2%,-4.1%,1.6,24.8%,2.1
CC1(C)C[C@@H]2C[C@@](C)(CN2C(=O)c2ccccc2)C1,-2.7%,5.3,-2.4%,19.6%,19.5,9.2%,1.9
CCOc1ccc(CONS(=O)(=O)c2ccc(NC(C)=O)cc2)cc1Cl,-2.8%,5.3,·,2.1%[15.4 µM],5.1,4.4%,6.1
CC(NC(=O)Cn1c(NCCO)nc2ccccc21)C1CC2CCC1C2 (configuration not stated),4.4%,-1.1,-1.5%,2.7%,-12.0,15.1%,-3.9
O=C1C2C3CCC(C3)C2C(=O)N1CNc1ccc(F)cc1 (configuration not stated),-8.1%,0.4,2.3%,?,-6.1,11.2%,2.0
Cc1cc(C)n(/N=C/c2cc([N+](=O)[O-])ccc2O)c(=O)c1,-18.1%,-17.2,·,?,-5.2,7.9%,0.8
O=C(Nc1ccc(NC(=O)c2cccs2)cn1)c1ccco1,-0.3%,-4.3,-4.0%,-8.1%,6.5,16.3%,2.1
O=[n+]1cc(-c2ccc(F)cc2)n([O-])c2c1CCC2,10.8%,-3.3,1.1%,?,6.2,17.0%,-0.9
O=C(CSc1n[nH]c(=O)n1CCc1ccccc1)NC1CCCC1,·,·,-2.0%,-23.5%,-4.9,·,·
Cc1ccc(S(=O)(=O)Nc2ccc3ncccc3c2)cc1,?,9.1,-2.2%,-44.1%[inhibitor],2.5,7.7%,-0.2
CCN(CC)S(=O)(=O)c1ccc(/C=C/C(=O)OCC(=O)Nc2ccc(C(N)=O)cc2)cc1,-0.3%,15.2,·,9.0%[15.4 µM],-1.7,15.3%,0.4
Cc1[nH]c2ccc(OCc3ccccc3)cc2c1CCN1C(=O)OC(C)(C)C1(C)O (configuration not stated),-16.3%,21.5,-4.4%,-21.0%,0.8,-4.5%,1.2
Cc1nc2ccccn2c(=O)c1NC(=O)c1cccs1,0.5%,-2.2,1.8%,-3.1%[15.4 µM],-6.8,·,·
O=C(NNC(=O)c1ccc2ccccc2c1O)Nc1ccc(F)cc1,-9.2%,4.1,4.6%,-0.6%,5.0,17.1%,2.4
